# Rce1 inh = yeast Rce1p protease inhibitors, primary screen, biochemical, fluorescence, cell-free homogeneous; CAAX prenyl protease 2 (Saccharomyces cerevisiae (strain ATCC 204508 / S288c)), Q03530; yeast membranes, quenched prenylated peptide cleavage fluorescence; calls only; 0.27% of 290,000 active; AID 2563, 2010;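 active means fall in fluorescence gain of 50% or more versus controls, with final raw signal at or below 3038400; inconclusive means same 50% fall but final raw signal above 3038400; inactive means fall in fluorescence gain under 50%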;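 further: plate controls were neutral control wells for no effect and wells lacking membranes for full effect; tested at 10 µM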
# Target sequence (Q03530 whole entry, looked up): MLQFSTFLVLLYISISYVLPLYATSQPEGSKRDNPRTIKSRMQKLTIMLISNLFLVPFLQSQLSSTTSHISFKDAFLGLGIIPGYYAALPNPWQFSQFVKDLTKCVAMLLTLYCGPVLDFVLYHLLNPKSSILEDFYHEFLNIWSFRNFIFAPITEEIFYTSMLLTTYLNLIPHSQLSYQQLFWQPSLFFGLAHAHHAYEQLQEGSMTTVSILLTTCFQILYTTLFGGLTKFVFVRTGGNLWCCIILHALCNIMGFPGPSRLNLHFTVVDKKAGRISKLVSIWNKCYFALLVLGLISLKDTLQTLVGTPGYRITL
# Yeast UUG start = modulators of yeast start codon fidelity, primary screen, whole organism, S. cerevisiae, single point, plate reader; S. cerevisiae UUG-firefly luciferase reporter, luminescence/redox ratio; activity score, % at 18.7 µM; 0.13% of 350,000 active; AID 602363, 2012;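 active means replicate mean at a twofold rise or more, about +100% in these data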;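 further: firefly luciferase made from a UUG start codon reports start codon fidelity; reporter light over untreated wells divided by growth signal over untreated wells; some hits fall short of that in this replicate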
# CSC inhib = cancer stem cell viability inhibitors, primary screen, luminescence; cancer stem cell-like cells viability; inhibition, % at 7.5 µM; 1.1% of 300,000 active; AID 2717, 2010;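 active means mean at 75% or more and at least half the replicates too; inconclusive means mean and replicates disagree; tested in HMLE shEcad cells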;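 further: 0% = median of negative and 100% = median of positive control wells; the first replicate is given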
# MT1-MMP act inh = blockers of MT1-MMP proenzyme processing, primary screen, HT1080 RFP-PRO-GFP cells, GFP/RFP fluorescence | GFP/RFP ratio fluorescence, overnight; percent of plate control window, DMSO zero | GFP/RFP ratio change, % at 20 µM | 0.061% of 360,000 active | Matrix metalloproteinase-14 (Homo sapiens), P50281;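 active means GFP/RFP ratio change of at least 30% with cell ATP level not reduced by more than half and red fluorescence within 50% of control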; further: strong numbers were not always called active
#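 Assay system: HT1080 RFP-PRO-GFP cells | Dosing: 20 µM single dose, 1% DMSO | Incubation: Cells overnight before dosing, compound overnight, 37 °C, 5% CO2 | Evaluation: GFP/RFP fluorescence ratio | Control set: DMSO-only wells and HT1080 RFP-L50D-GFP cell wells as references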
# Env fusion inh = inhibitors of HIV-1 Env-driven cell-cell fusion, primary screen, HeLa-JRFL effector, CEM21 target cells, luciferase | inhibition, % at 12.3 µM | 1.1% of 360,000 active;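 active means mean replicate inhibition score of at least 50 and every replicate individually at or above 50; inconclusive means only one of the two criteria met; inactive means mean below 50 and not all replicates reaching 50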;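 further: 0% = plate neutral controls and 100% = maraviroc near 300 nM; one replicate is shown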
# eIF4H inh = human eIF4H binding inhibitors, primary screen, translation initiation inhibitor project, biochemical, uHTS, fluorescence polarization; Eukaryotic translation initiation factor 4H (Homo sapiens), Q15056; 0.94% of 290,000 active; inhibition, % at 35 µM; eIF4H fluorescence polarization binding assay; AID 2012, 2009;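 active means 50% or more with normal probe brightness, or confirmed in later tests; inconclusive means above 50% with abnormal brightness, or retests that disagree; inactive means below 50% or failed in later tests; about a fifth of its hits are not listed in these tables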;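 further: calls also rest on retests at 20 µM and on dose response follow-up; 0% = protein and probe with vehicle and 100% = probe without protein; strong numbers were not always called active; many hits fall short of the cut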
# PABP polyA inh = PABP poly(A) RNA binding inhibitors, primary screen, biochemical, fluorescence polarization, uHTS; Polyadenylate-binding protein 1 (Homo sapiens), P11940; 1% of 290,000 active; inhibition, % at 35 µM;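 active means 50% or more with normal probe brightness, or confirmed in later tests; inconclusive means above 50% with abnormal brightness, or retests that disagree; inactive means below 50% or failed in later tests; about a fifth of its hits are not listed in these tables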;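 further: calls also rest on retests at 20 µM and on dose response follow-up; controls were probe without protein and protein plus probe with vehicle; some compounds called inactive have numbers as strong as hits; many hits fall short of the cut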
# Target sequence (P11940 whole entry, looked up): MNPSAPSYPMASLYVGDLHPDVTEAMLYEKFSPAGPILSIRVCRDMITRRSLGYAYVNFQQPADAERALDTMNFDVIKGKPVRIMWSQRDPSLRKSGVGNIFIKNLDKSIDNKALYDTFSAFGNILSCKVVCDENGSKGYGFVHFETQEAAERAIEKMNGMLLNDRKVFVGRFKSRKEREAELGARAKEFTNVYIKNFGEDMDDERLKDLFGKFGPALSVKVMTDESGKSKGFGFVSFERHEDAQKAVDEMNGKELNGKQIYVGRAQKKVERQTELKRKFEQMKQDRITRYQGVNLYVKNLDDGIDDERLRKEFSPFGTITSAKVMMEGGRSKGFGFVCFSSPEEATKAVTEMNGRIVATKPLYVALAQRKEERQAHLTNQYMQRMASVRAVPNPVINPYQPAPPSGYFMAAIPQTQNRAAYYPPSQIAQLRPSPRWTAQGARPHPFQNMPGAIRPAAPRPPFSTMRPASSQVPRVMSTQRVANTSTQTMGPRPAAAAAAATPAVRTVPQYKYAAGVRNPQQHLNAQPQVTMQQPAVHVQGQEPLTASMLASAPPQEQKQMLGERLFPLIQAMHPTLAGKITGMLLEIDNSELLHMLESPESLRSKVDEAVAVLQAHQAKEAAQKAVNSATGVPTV
# eIF4H inh retest = second read-out of eIF4H inh, no call of its own (marks repeat the call); inhibition, %; compound at 20 µM; confirmation average;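 mean of two retest wells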
# PABP polyA inh retest = further read-out of PABP polyA inh, marked with its call; inhibition, %; compound at 20 µM; confirmation repeats;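 mean of two retest wells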
# MT1-MMP act inh RFP = further read-out of MT1-MMP act inh, marked with its call; RFP signal change, %; measured here: RFP expression control read;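 0 = vehicle wells; hits needed this value within 50% of zero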
# * marks the source's active call; other numbers are inactive results; i = inactive; ? = inconclusive; . = not tested or not shown.
# A first look (18 entries):
SMILES,Rce1 inh,Yeast UUG start,CSC inhib,MT1-MMP act inh,MT1-MMP act inh RFP,Env fusion inh,eIF4H inh,PABP polyA inh,others
Cc1nn(-c2cc(N3CCCCC3)ccc2N)c(=O)c2ccccc12,i,.,-13,6,1,23,-8,-15,
O=C(O)CN1c2cccc3cccc(c23)S1(=O)=O,i,-15,-18,-2,5,-36,32,22,
COc1ccc(CNC(=O)C2(C)Cc3c(-c4cccc(NC(C)=O)c4)ccnc3O2)cc1OC (stereo unspecified),.,-12,.,0,0,1,.,.,
O=C(c1ccc(NS(=O)(=O)c2cccc([N+](=O)[O-])c2)cc1)N1CCCCCC1,i,.,4,2,-10,19,.,.,
Cc1ccc2oc(-c3ccc(C)c(NC(=O)Cc4cccs4)c3)nc2c1,i,14,0,0,0,.,-5,0,
Cc1ccc(CNC(=O)C2CC(=O)N(C3CCCCCC3)C2)cc1 (stereo unspecified),i,.,-20,5,8,-6,6,-1,
O=C(N/C(=C\c1ccccc1)C(=O)N1CCOCC1)c1ccccc1Cl,i,-8,3,1,1,20,-6,9,
c1cnc(N2CCN(c3nc4ccccc4n4cnnc34)CC2)nc1,i,-6,.,-2,1,-26,3,6,
COc1cccc(NC(=O)N(Cc2ccco2)C(C)c2cccs2)c1 (stereo unspecified),i,-35,3,0,-4,.,-5,-8,
CC(CNC(=O)CN1C(=O)CCSc2ccccc21)c1ccccc1 (stereo unspecified),i,3,2,0,2,10,-19,-1,
Cc1cc(=O)[nH]c(SCC(=O)c2ccccc2)c1C#N,i,-11,8,3,2,.,81*,69*,
O=C1C=C(N2CCOCC2)c2ccccc2C1=O,i,-52,21,-12,-27,65*,1,-4,
CS(=O)(=O)N(CC(=O)NCc1ccco1)Cc1ccc(Cl)cc1,i,.,-11,-1,5,.,-2,13,
Cc1cc(C)n(CC(C)NCc2cn[nH]c2-c2ccc(C)c(C)c2)n1 (stereo unspecified),i,-23,-6,-5,-1,32,-6,-7,
CC[C@]1(C(=O)OC)[C@H]2C(=O)N(C)C(=O)[C@H]2[C@H]2CN=C(SCc3ccc(Cl)cc3)N21,.,-14,.,2,0,46,.,.,
CCNc1nc(N)nc(Oc2ccc(C(=O)OC)cc2)n1,i,-17,.,0,2,.,3,-3,
O=C(CCn1[nH]c(=O)c2ccccc2c1=O)OC1CCCCC1,i,-19,-5,7,1,.,-2,3,
Cc1nc(-c2ccc(NC(=O)CC(C)C)cc2)cs1,i,.,18,5,0,-74,-11,17,

# Results (from the top)
SMILES,Rce1 inh,Yeast UUG start,CSC inhib,MT1-MMP act inh,MT1-MMP act inh RFP,Env fusion inh,eIF4H inh,PABP polyA inh,others
Cc1nn(-c2cc(N3CCCCC3)ccc2N)c(=O)c2ccccc12,i,.,-13,6,1,23,-8,-15,
O=C(O)CN1c2cccc3cccc(c23)S1(=O)=O,i,-15,-18,-2,5,-36,32,22,
COc1ccc(CNC(=O)C2(C)Cc3c(-c4cccc(NC(C)=O)c4)ccnc3O2)cc1OC (stereo unspecified),.,-12,.,0,0,1,.,.,
O=C(c1ccc(NS(=O)(=O)c2cccc([N+](=O)[O-])c2)cc1)N1CCCCCC1,i,.,4,2,-10,19,.,.,
Cc1ccc2oc(-c3ccc(C)c(NC(=O)Cc4cccs4)c3)nc2c1,i,14,0,0,0,.,-5,0,
Cc1ccc(CNC(=O)C2CC(=O)N(C3CCCCCC3)C2)cc1 (stereo unspecified),i,.,-20,5,8,-6,6,-1,
O=C(N/C(=C\c1ccccc1)C(=O)N1CCOCC1)c1ccccc1Cl,i,-8,3,1,1,20,-6,9,
c1cnc(N2CCN(c3nc4ccccc4n4cnnc34)CC2)nc1,i,-6,.,-2,1,-26,3,6,
COc1cccc(NC(=O)N(Cc2ccco2)C(C)c2cccs2)c1 (stereo unspecified),i,-35,3,0,-4,.,-5,-8,
CC(CNC(=O)CN1C(=O)CCSc2ccccc21)c1ccccc1 (stereo unspecified),i,3,2,0,2,10,-19,-1,
Cc1cc(=O)[nH]c(SCC(=O)c2ccccc2)c1C#N,i,-11,8,3,2,.,81*,69*,
O=C1C=C(N2CCOCC2)c2ccccc2C1=O,i,-52,21,-12,-27,65*,1,-4,
CS(=O)(=O)N(CC(=O)NCc1ccco1)Cc1ccc(Cl)cc1,i,.,-11,-1,5,.,-2,13,
Cc1cc(C)n(CC(C)NCc2cn[nH]c2-c2ccc(C)c(C)c2)n1 (stereo unspecified),i,-23,-6,-5,-1,32,-6,-7,
CC[C@]1(C(=O)OC)[C@H]2C(=O)N(C)C(=O)[C@H]2[C@H]2CN=C(SCc3ccc(Cl)cc3)N21,.,-14,.,2,0,46,.,.,
CCNc1nc(N)nc(Oc2ccc(C(=O)OC)cc2)n1,i,-17,.,0,2,.,3,-3,
O=C(CCn1[nH]c(=O)c2ccccc2c1=O)OC1CCCCC1,i,-19,-5,7,1,.,-2,3,
Cc1nc(-c2ccc(NC(=O)CC(C)C)cc2)cs1,i,.,18,5,0,-74,-11,17,
OCC[C@@H]1C[C@@H](O)[C@H](O)[C@]2(OCCc3ccccc32)O1,i,-15,-14,2,3,20,-18,-11,
COC(=O)c1ccc(CO/N=C/c2ccccc2OC)cc1,i,-7,.,0,1,9,-6,4,
CCc1nnc(NC(=O)CCC(=O)N2CCN(Cc3ccccc3)CC2)s1,i,-17,.,2,6,.,6,20,
O=C(CN(CC1CCCO1)C(=O)CNS(=O)(=O)c1ccc(Cl)cc1)NC1CCCC1 (stereo unspecified),i,-12,.,0,2,7,0,-6,
C=CCOC(=O)/C(=C\c1ccccc1)NC(=O)c1ccco1,i,.,-12,3,2,-3,-3,0,
CC(C)CC(CO)N1CCN(C(=O)c2cccc(Cl)c2)CCC1=O (stereo unspecified),i,-12,-19,-4,4,-2,.,.,
Cc1nn(-c2ccc(C(=O)O)cc2)c(C)c1Cl,i,-15,-14,-13,-2,6,-13,-3,
O=C(CCC1CCCC1)Nc1nnc(-c2ccc3c(c2)OCO3)s1,i,-1,36,2,4,0,3,4,
Cc1[nH]c(C)c(S(=O)(=O)NCc2ccc(F)cc2)c1C(=O)N1CCCCC1,i,10,-5,-1,0,10,-8,-1,
COC(=O)[C@@]1(Cc2ccc(OC)cc2)[C@H]2c3cc(C(=O)N4CCCC4)n(C[C@H](O)CO)c3C[C@H]2CN1C(=O)c1ccccc1,i,.,-4,.,.,-17,.,.,
N#Cc1c(N)nc2c(c1N)CC(CO)O2 (stereo unspecified),i,.,-13,3,2,.,-8,8,
CCOC(=O)c1sc(NC(=O)C2CCCCC2)nc1C,i,.,5,-4,-7,-74,.,.,
COc1cc(OC)cc(C(=O)Nn2cc(C(=O)Nc3ccccc3F)c3ccccc3c2=O)c1,i,2,-8,5,-1,.,0,13,
O=C(c1ccc2c(c1)OCO2)N1CCc2ccccc2C1,i,-4,-5,2,3,-40,-10,0,
COCCCn1c(SCC(=O)N2CCCC(C)C2)nnc1-c1ccco1 (stereo unspecified),i,-4,-1,-1,4,.,-3,0,
O=C(Cn1nc(Cc2cccnc2)c2ccccc2c1=O)NCCCN1CCCC1=O,i,-8,-13,0,3,0,7,-5,
O=C(O)c1cc([N+](=O)[O-])ccc1C(=O)Nc1cccc([N+](=O)[O-])c1,i,10,-11,-4,-3,1,-8,8,
CC(C)(O)C#CC#CCN1CCOCC1,i,-14,-17,-5,4,.,-4,-8,
CCCCCCCOc1ccc(OC(=O)c2ccncc2)cc1,i,-16,.,-4,-1,.,2,-2,
Cc1ccc(CNC(=O)Cc2cn(C)c3ccccc23)cc1,i,-20,-6,1,1,-8,2,6,
O=C(NCc1ccccc1)C1CCC(=O)N(CCN2CCOCC2)C1 (stereo unspecified),i,-11,4,-1,6,6,10,-2,
O=C(Nc1ccc(C(F)(F)F)cc1)c1cccc(-n2cnnn2)c1,.,-41,0,8,-5,.,.,.,
CCN(CC)C(=O)Cn1cc(S(=O)(=O)CC(=O)NCc2ccc3c(c2)OCO3)c2ccccc21,i,.,-33,0,1,-3,-7,-12,
COCCn1cc(C(=O)N2CCCC(C)C2)c2c3ccccc3n(C)c2c1=O (stereo unspecified),i,10,-6,0,-5,1,4,4,
O=C(CSc1nc2[nH]ncc2c(=O)n1-c1ccc(Cl)c(Cl)c1)NCc1ccccc1Cl,i,.,-9,6,-3,-8,-2,1,
COc1cc(C(=S)N(C)C)ccc1O,i,-5,0,3,0,.,-19,-4,
CCOC(=O)CC1C(=O)NCCN1c1nc2ccc(C)cn2c(=O)c1/C=C1\SC(=S)N(C(C)CC)C1=O (stereo unspecified),i,.,4,.,.,.,?,?,
Cc1cc(C)c2cc(C(c3nnnn3C3CCCC3)N3CCOCC3)c(=O)[nH]c2c1 (stereo unspecified),i,-9,3,6,8,-20,43,66,eIF4H inh retest=-8;PABP polyA inh retest=2
O=c1c2ccccc2ncn1Cc1nc2ccccc2s1,i,0,-19,0,8,.,-7,7,
Cc1ccc2oc(=O)c3cc(C(=O)NCCCN4C(C)CCCC4C)sc3c2c1 (stereo unspecified),i,-18,6,-1,3,-4,-8,6,
COC(=O)c1ccc(C23CC4(C2)[C@H](CN(CC2CCCCC2)[C@@H]4c2ccccc2)C3c2ccc(Cl)nc2)cc1 (stereo partly specified),i,-8,6,-14,-4,23,-11,-10,
O=C(NCCO)c1c(O)c2cccc3c2n(c1=O)CC3,i,.,-11,4,2,.,4,16,

# Additional results.
SMILES,Rce1 inh,Yeast UUG start,CSC inhib,MT1-MMP act inh,MT1-MMP act inh RFP,Env fusion inh,eIF4H inh,PABP polyA inh,others
CN(Cc1ccccc1)C(=O)CN(c1ccccc1Cl)S(C)(=O)=O,i,-5,-2,0,-1,18,4,-1,
COc1cc(NC(=S)NN2CCN(C)CC2)cc(OC)c1,i,-21,1,-8,2,-30,6,2,
CC(OC(=O)C1CCCC1)C(=O)Nc1ccc(S(N)(=O)=O)cc1 (stereo unspecified),i,-8,.,-3,2,-8,.,.,
COc1ccc(NS(=O)(=O)c2ccc3ccccc3c2)c2ncccc12,i,-28,.,-1,-4,17,9,-4,
CCOc1ccc(-n2nnc3c(=O)n(CC(=O)Nc4cc(C)on4)cnc32)cc1,i,-19,-6,1,3,-7,-4,-2,
O=C(c1cc(C2CC2)on1)N1CCN(c2ccccc2)CC1,i,-23,16,1,1,.,5,-8,
COc1ccc(NC(=O)COc2ncnc3ccccc23)cc1S(=O)(=O)N1CCOCC1,i,.,-9,1,2,-14,0,-2,
